GIV Gai3 FP: GIV-Galpha-i interaction inhibition | P08753 | Galpha-i3/FITC-GIV peptide fluorescence polarization, 90 min; active compounds read low; scaled: aluminum fluoride 0%, vehicle 100% | percent of control (FP), % (test concentration not listed) | 210,000 compounds, 0.42% hits;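 active = replicate mean at 85% of control or lower, very high polarization wells dropped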;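 note: lower values mean more displacement of the GIV peptide from Galpha-i3; wells of about 15 µL received 100 nL stock; the first replicate is given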
Target sequence (P08753 whole entry, looked up): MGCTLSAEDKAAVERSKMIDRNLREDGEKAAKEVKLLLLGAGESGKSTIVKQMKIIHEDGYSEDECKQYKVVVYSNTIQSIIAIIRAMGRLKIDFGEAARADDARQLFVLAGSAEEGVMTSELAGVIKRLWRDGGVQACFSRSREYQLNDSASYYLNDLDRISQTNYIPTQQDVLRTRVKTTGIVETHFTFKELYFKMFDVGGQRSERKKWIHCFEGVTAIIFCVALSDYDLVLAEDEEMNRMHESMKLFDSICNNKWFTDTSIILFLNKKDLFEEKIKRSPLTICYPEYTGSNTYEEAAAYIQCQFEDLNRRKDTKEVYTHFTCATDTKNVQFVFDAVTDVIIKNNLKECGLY
Sa growth 42C: inhibitors of Staphylococcus aureus growth at 42 °C | S. aureus RN4220 growth, OD600, 20 h; active compounds read low | 170,000 compounds, 0.53% hits | relative growth, % (concentration not given with the values);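 active = growth at 42 °C up to 50% and 20 or more points under that at 30 °C, or under 10% at both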;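 note: 300 nL library stock went into each well; scaled to the means of positive and negative controls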
HCMV UL50-53 inh: inhibitors of HCMV UL50-UL53 nuclear egress complex interaction. inhibition, % (test concentration not listed). HTRF UL50-UL53 interaction, normalized percent inhibition. 190,000 compounds, 0.15% hits;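 active = both replicates at 50% or more, plus weaker picks with an unusually low signal ratio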;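 note: stock transfer was 100 nL into about 20 µL; 0% = negative control wells and 100% = wells with untagged competitor protein; inactives centre near -12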
Sa growth 42C second temp: also measured in Sa growth 42C; calls as there; relative growth, %; measured here: growth at 30 °C;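 optical density after 20 h as mean of two plates; 100% = untreated growth and lower means inhibition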
The depositor's hits bear a star; & = joins results of further samples.

For COc1ccc(/C=C2\SC(=Nc3ccccc3Cl)NC2=O)c(OC)c1 the results were GIV Gai3 FP 103 and HCMV UL50-53 inh -13.
`COc1ccc(CCNC(=O)C2CCN(C(=O)N(C)C)CC2)cc1OC` gave GIV Gai3 FP 101, Sa growth 42C 84, HCMV UL50-53 inh -37 and Sa growth 42C second temp 89.
`CCOC(=O)Cc1c(SC)c2ccccc2n1C` gave Sa growth 42C 87, HCMV UL50-53 inh 9 and Sa growth 42C second temp 102.
`Cc1ccc(-n2nc(C)c3nc(CCC(=O)Nc4c(C)cccc4C)c(=O)n(C)c32)cc1` gave GIV Gai3 FP 109 and HCMV UL50-53 inh -20.
Cc1c(C(=O)NCc2ccccc2Br)oc2ccc3c(c12)C(=O)CC(C)(C)O3 was read as GIV Gai3 FP 107, Sa growth 42C 104, HCMV UL50-53 inh -36 and Sa growth 42C second temp 82.
`O=C(CNC(=O)C(c1ccccc1)c1ccccc1)NC1CCCCC1` gave Sa growth 42C 106, HCMV UL50-53 inh -1 and Sa growth 42C second temp 86.
`CC(NS(=O)(=O)c1ccccc1)c1nc(-c2ccccc2)no1` (stereo unspecified) gave GIV Gai3 FP 105, Sa growth 42C 112, HCMV UL50-53 inh -15 and Sa growth 42C second temp 81.
For CCSc1n[nH]c(-c2cccs2)n1 the results were Sa growth 42C 101, HCMV UL50-53 inh -27 and Sa growth 42C second temp 95.
Screening Cc1noc(/C=C/c2cccs2)c1S(=O)(=O)N1CCCC(C(=O)NCC2CCCO2)C1 (stereo unspecified) returned GIV Gai3 FP 94, Sa growth 42C 110 and Sa growth 42C second temp 85.
`O=C(Nc1ccccc1C(=O)O)c1ccc(CN2CCOCC2)cc1` gave GIV Gai3 FP 101, Sa growth 42C 98 and Sa growth 42C second temp 79.
Cc1ccc(C(=O)CSc2nnc3nc(C)cc(C)n23)cc1 was read as Sa growth 42C 111, HCMV UL50-53 inh -28 and Sa growth 42C second temp 94.
Cc1nnc2sc(-c3csc4c3CCCC4)nn12 was read as GIV Gai3 FP 101, Sa growth 42C 100, HCMV UL50-53 inh -5 and Sa growth 42C second temp 81.

Arranged by heavy-atom count (smallest number first): part of the list above
Cc1ccc(C(=O)CSc2nnc3nc(C)cc(C)n23)cc1 was read as Sa growth 42C 111, HCMV UL50-53 inh -28 and Sa growth 42C second temp 94.
Screening Cc1noc(/C=C/c2cccs2)c1S(=O)(=O)N1CCCC(C(=O)NCC2CCCO2)C1 (stereo unspecified) returned GIV Gai3 FP 94, Sa growth 42C 110 and Sa growth 42C second temp 85.
`Cc1ccc(-n2nc(C)c3nc(CCC(=O)Nc4c(C)cccc4C)c(=O)n(C)c32)cc1` gave GIV Gai3 FP 109 and HCMV UL50-53 inh -20.

Next section:
`Cc1ccc(OC(=O)CCC(=O)Nc2cccc(C#N)c2)cc1` gave Sa growth 42C 82, HCMV UL50-53 inh -6 and Sa growth 42C second temp 86.
COC(=O)c1c(-c2c(Cl)cccc2Cl)noc1NC(=O)NCc1cccs1 was read as GIV Gai3 FP 105, Sa growth 42C 80, HCMV UL50-53 inh -33 and Sa growth 42C second temp 80.
`O=C(O)c1cccnc1Sc1ccccc1Cl` gave Sa growth 42C 90, HCMV UL50-53 inh -12 and Sa growth 42C second temp 67.
COc1ccc2oc(=O)c(C(=O)NCCN3CCOCC3)cc2c1 was read as GIV Gai3 FP 104, Sa growth 42C 102, HCMV UL50-53 inh -120 and Sa growth 42C second temp 90.
`COc1ccccc1NS(=O)(=O)c1cccc(C(=O)N/N=C/c2ccc(C)o2)c1` gave Sa growth 42C 90, HCMV UL50-53 inh -55 and Sa growth 42C second temp 84.
Screening COc1cc(SC)ccc1C(=O)NC(C)C returned Sa growth 42C 109, HCMV UL50-53 inh 0 and Sa growth 42C second temp 93.
For CN(CC(=O)Nc1cccc2nsnc12)c1ccccc1 the results were Sa growth 42C 96, HCMV UL50-53 inh -43 and Sa growth 42C second temp 94.
Cc1nc2sc3c(c2c(=O)n1O)CCCC3 was read as GIV Gai3 FP 102, Sa growth 42C 100, HCMV UL50-53 inh -3 and Sa growth 42C second temp 97.
`CCOC(=O)c1cc(S(=O)(=O)N2CCCC2C(=O)NC(C)C)cn1C` (stereo unspecified) gave GIV Gai3 FP 102 and HCMV UL50-53 inh -21.
For CC1CSC(N(C(=O)CN2C(=O)COc3ccccc32)c2ccc(Cl)cc2)=N1 (stereo unspecified) the results were Sa growth 42C 105, HCMV UL50-53 inh -7 and Sa growth 42C second temp 98.
O=C(CCn1cnc2ccccc2c1=O)Nc1ccc2c(c1)OCCO2 was read as GIV Gai3 FP 102 and HCMV UL50-53 inh 9.
`Cc1cc(C)c(C#N)c(N2CCN(CCOc3ccc(Cl)cc3)CC2)n1` gave GIV Gai3 FP 106, Sa growth 42C 109, HCMV UL50-53 inh -7 and Sa growth 42C second temp 95.

3 entries picked at random from those above:
COC(=O)c1c(-c2c(Cl)cccc2Cl)noc1NC(=O)NCc1cccs1 was read as GIV Gai3 FP 105, Sa growth 42C 80, HCMV UL50-53 inh -33 and Sa growth 42C second temp 80.
For CN(CC(=O)Nc1cccc2nsnc12)c1ccccc1 the results were Sa growth 42C 96, HCMV UL50-53 inh -43 and Sa growth 42C second temp 94.
`CCOC(=O)c1cc(S(=O)(=O)N2CCCC2C(=O)NC(C)C)cn1C` (stereo unspecified) gave GIV Gai3 FP 102 and HCMV UL50-53 inh -21.

(cont.)
`COc1cccc(OCC(=O)Nc2nnc3n2CCS3)c1` gave GIV Gai3 FP 100, Sa growth 42C 104 and Sa growth 42C second temp 88.
`COc1ccc(C2C(C(=O)Nc3ccccc3)=C(C)Nc3ncnn32)cc1OC` (stereo unspecified) gave GIV Gai3 FP 107 and HCMV UL50-53 inh -18.
CN(Cc1ccccc1)Cc1ccccc1O was read as GIV Gai3 FP 106, Sa growth 42C 77, HCMV UL50-53 inh -13 and Sa growth 42C second temp 94.
For COc1ccc(C2C(=O)N(C3CCCCCC3)CC(=O)N2CCc2ccc(OC)c(OC)c2)cc1 (stereo unspecified) the results were GIV Gai3 FP 105, Sa growth 42C 100 and Sa growth 42C second temp 94.
Screening CCn1c(C)nc2cc(C(=O)OCCC(F)(F)F)ccc21 returned Sa growth 42C 112, HCMV UL50-53 inh -3 and Sa growth 42C second temp 90.
COc1ccccc1Cn1cnc2c1c(=O)n(C)c(=O)n2C was read as GIV Gai3 FP 100, Sa growth 42C 85, HCMV UL50-53 inh -10 and Sa growth 42C second temp 84.
For Cc1ccc(NC(=O)CSc2nc3ccccc3c(=O)n2CCCC(=O)N2CCCC2)cc1 the results were GIV Gai3 FP 96, Sa growth 42C 116, HCMV UL50-53 inh -8 and Sa growth 42C second temp 92.
For O=C1CS/C(=C/c2nc3ccccc3[nH]2)N1 the results were Sa growth 42C 129, HCMV UL50-53 inh -61 and Sa growth 42C second temp 39.
For Cc1cc(C)c(NC(=O)c2cc(CN3CCOCC3)on2)c(C)c1 the results were GIV Gai3 FP 102, Sa growth 42C 81 and Sa growth 42C second temp 93.
`N#C/C(=C\N1CCN(c2ccccc2)CC1)S(=O)(=O)c1ccccn1` gave GIV Gai3 FP 102, Sa growth 42C 102, HCMV UL50-53 inh -47 and Sa growth 42C second temp 92.
`CC(=O)NNc1ncc(C(F)(F)F)cc1Cl` gave GIV Gai3 FP 107, Sa growth 42C 106, HCMV UL50-53 inh -5 and Sa growth 42C second temp 98.
Screening O=c1[nH]cnc2c1nnn2-c1ccc(F)cc1 returned GIV Gai3 FP 101 and HCMV UL50-53 inh -23.
Cc1cc(-c2ccccc2)nn1C(CC(=O)O)C(=O)O (stereo unspecified) was read as GIV Gai3 FP 99, Sa growth 42C 107 and Sa growth 42C second temp 86.
Screening COc1ccc(S(=O)(=O)N(C)C2CCCCC2)cc1 returned GIV Gai3 FP 92, Sa growth 42C 100, HCMV UL50-53 inh -7 and Sa growth 42C second temp 124.
CCOc1ccc(N2C(=O)CC(c3ccc(OC)cc3)CC2=O)cc1 was read as GIV Gai3 FP 99 and HCMV UL50-53 inh 23.
Screening CC1=NN(c2ccc(C)c(Cl)c2)C(=O)/C1=C\c1ccc(-c2ccc(S(N)(=O)=O)cc2)o1 returned GIV Gai3 FP 106 and HCMV UL50-53 inh -13.
CC1CCc2ccccc2N1C(N)=Nc1ccccc1 (stereo unspecified) was read as Sa growth 42C 92, HCMV UL50-53 inh -12 and Sa growth 42C second temp 89.
O=C1C(=O)N(c2ccccn2)C(c2ccccc2)/C1=C(/O)c1ccccc1 (stereo unspecified) was read as GIV Gai3 FP 98, Sa growth 42C 91, HCMV UL50-53 inh -45 and Sa growth 42C second temp 111.
Screening COc1ccccc1Oc1ncnc2c1oc1ccccc12 returned Sa growth 42C 73, HCMV UL50-53 inh -8 and Sa growth 42C second temp 80.
`COc1ccccc1CNC(=O)C1CCN(Cc2nc(-c3ccc(OC)c(OC)c3)oc2C)CC1` gave GIV Gai3 FP 113, Sa growth 42C 92, HCMV UL50-53 inh -11 and Sa growth 42C second temp 99.
For O=S1(=O)NC(=NC2CCCc3ccccc32)c2ccccc21 (stereo unspecified) the results were Sa growth 42C 113, HCMV UL50-53 inh 18 and Sa growth 42C second temp 104.
COCCn1c(O)c(/C=N/NS(=O)(=O)c2ccc(C)cc2)c(=O)[nH]c1=S was read as Sa growth 42C 93, HCMV UL50-53 inh -8 and Sa growth 42C second temp 94.
`O=C(Cn1ccc2cc(S(=O)(=O)N3CCCC3)ccc21)NCc1ccccc1Cl` gave GIV Gai3 FP 104&103, Sa growth 42C 92, HCMV UL50-53 inh 8 and Sa growth 42C second temp 87.
For NNC(=O)c1cccc(S(=O)(=O)Nc2ccccc2Cl)c1 the results were Sa growth 42C 97, HCMV UL50-53 inh -22 and Sa growth 42C second temp 92.
`CN1C(=O)c2cc(C(=O)NCCC3=CCCCC3)nn2CC1(C)C(=O)NC1CCCC1` (stereo unspecified) gave GIV Gai3 FP 103 and HCMV UL50-53 inh -12.
CCN(CC)C(=O)c1ccc(CS(=O)c2cccc(Cl)c2)o1 (stereo unspecified) was read as GIV Gai3 FP 100, Sa growth 42C 95, HCMV UL50-53 inh -22 and Sa growth 42C second temp 92.
`CCc1ccc(NC(=O)NCC2CCN(Cc3cccc(Cl)c3)CC2)cc1` gave GIV Gai3 FP 103 and HCMV UL50-53 inh -14.
`CCc1c(/C(C)=N/NC(N)=O)oc2ccc(C)cc12` gave Sa growth 42C 97, HCMV UL50-53 inh -5 and Sa growth 42C second temp 98.
For O=C(Nc1ccc2c(c1)OCO2)c1ccc2c(c1)C(=O)N(C1CCCCC1)C2=O the results were GIV Gai3 FP 106, Sa growth 42C 113, HCMV UL50-53 inh -1 and Sa growth 42C second temp 88.
For CCS(=O)(=O)N1CCC(C(=O)NCc2ccc(OC)cc2)CC1 the results were GIV Gai3 FP 104, Sa growth 42C 107, HCMV UL50-53 inh -8 and Sa growth 42C second temp 91.
For CN(C(=O)CC(=O)N(C)C1CCCCC1)C1CCCCC1 the results were Sa growth 42C 97, HCMV UL50-53 inh 16 and Sa growth 42C second temp 100.
`CCOC(=O)c1ccc(NC(=O)C(CC)Sc2nc3ncccc3o2)cc1` (stereo unspecified) gave GIV Gai3 FP 102, Sa growth 42C 84 and Sa growth 42C second temp 91.
CCc1ccc(C(=O)C(C)Sc2nncs2)cc1 (stereo unspecified) was read as Sa growth 42C 99, HCMV UL50-53 inh -20 and Sa growth 42C second temp 84.
Screening Cc1ccccc1Cn1nnc(-c2ccncc2)n1 returned GIV Gai3 FP 101, Sa growth 42C 84, HCMV UL50-53 inh -23 and Sa growth 42C second temp 78.
Screening CCC(CC)NC(=O)c1ccc(S(=O)(=O)N2CCCCC2)cc1 returned Sa growth 42C 85, HCMV UL50-53 inh -23 and Sa growth 42C second temp 96.
`CCCCN(C)C(=O)c1ccc2c(c1)N(CC)C(=O)c1ccccc1S2=O` (stereo unspecified) gave GIV Gai3 FP 100, Sa growth 42C 102 and Sa growth 42C second temp 89.
Screening CC(=O)N1CCN(CC(O)COc2ccc(C)cc2)CC1 (stereo unspecified) returned GIV Gai3 FP 100, Sa growth 42C 90 and Sa growth 42C second temp 95.
For CN1C(C(=O)NC2CCCC2)=CC(c2cccs2)=NS1(=O)=O the results were GIV Gai3 FP 99, Sa growth 42C 94 and Sa growth 42C second temp 83.
For CN(C)S(=O)(=O)c1ccc(C(=O)OC2CCOC2=O)cc1 (stereo unspecified) the results were Sa growth 42C 75, HCMV UL50-53 inh -5 and Sa growth 42C second temp 90.
Screening Cc1ccc(CCNC(=O)c2cc(C)nc3c2c(C)nn3-c2ccc(C)cc2)cc1 returned GIV Gai3 FP 103, Sa growth 42C 81 and Sa growth 42C second temp 85.
For COc1cccc(CNC(=O)C2CCN(c3nnc(-n4c(C)ccc4C)s3)CC2)c1 the results were GIV Gai3 FP 103, Sa growth 42C 98, HCMV UL50-53 inh -25 and Sa growth 42C second temp 79.
For COc1cc(Cl)c(C)cc1NC(=O)CNC(=O)c1ccco1 the results were Sa growth 42C 106, HCMV UL50-53 inh 7 and Sa growth 42C second temp 96.
Screening COC(=O)c1cccc(NC(=O)c2nsc3ccccc23)c1 returned GIV Gai3 FP 111&102, Sa growth 42C 85, HCMV UL50-53 inh -9&-8 and Sa growth 42C second temp 85.
Cc1cc(C)cc(Oc2ccccc2/C=N\O)c1 was read as GIV Gai3 FP 100 and HCMV UL50-53 inh -15.
`CCn1c(SCc2cccc(C(=O)O)c2)nnc1-c1ccco1` gave GIV Gai3 FP 100, Sa growth 42C 127, HCMV UL50-53 inh -2 and Sa growth 42C second temp 93.

Screening results deposited in PubChem BioAssay by ICCB-Longwood Screening Facility, Harvard Medical School.
